Screening data (PubChem)
TRPV1 potentiator: HTS Assay for Compounds that Act as Potentiators of the Vanilloid Receptor 1; TRPV1-expressing cells, Fluo-8 calcium influx, capsaicin EC20 potentiation; host cell line not named in the record; control for the full effect not named in the record; potentiation, % at 8.33 µM; actives 0.02% (n = 320,000); active means potentiation above 80%; inconclusive means 30% to 80%; inactive means below 30%; note: 0% is about no effect
Target sequence (Q8NER1 whole entry, looked up): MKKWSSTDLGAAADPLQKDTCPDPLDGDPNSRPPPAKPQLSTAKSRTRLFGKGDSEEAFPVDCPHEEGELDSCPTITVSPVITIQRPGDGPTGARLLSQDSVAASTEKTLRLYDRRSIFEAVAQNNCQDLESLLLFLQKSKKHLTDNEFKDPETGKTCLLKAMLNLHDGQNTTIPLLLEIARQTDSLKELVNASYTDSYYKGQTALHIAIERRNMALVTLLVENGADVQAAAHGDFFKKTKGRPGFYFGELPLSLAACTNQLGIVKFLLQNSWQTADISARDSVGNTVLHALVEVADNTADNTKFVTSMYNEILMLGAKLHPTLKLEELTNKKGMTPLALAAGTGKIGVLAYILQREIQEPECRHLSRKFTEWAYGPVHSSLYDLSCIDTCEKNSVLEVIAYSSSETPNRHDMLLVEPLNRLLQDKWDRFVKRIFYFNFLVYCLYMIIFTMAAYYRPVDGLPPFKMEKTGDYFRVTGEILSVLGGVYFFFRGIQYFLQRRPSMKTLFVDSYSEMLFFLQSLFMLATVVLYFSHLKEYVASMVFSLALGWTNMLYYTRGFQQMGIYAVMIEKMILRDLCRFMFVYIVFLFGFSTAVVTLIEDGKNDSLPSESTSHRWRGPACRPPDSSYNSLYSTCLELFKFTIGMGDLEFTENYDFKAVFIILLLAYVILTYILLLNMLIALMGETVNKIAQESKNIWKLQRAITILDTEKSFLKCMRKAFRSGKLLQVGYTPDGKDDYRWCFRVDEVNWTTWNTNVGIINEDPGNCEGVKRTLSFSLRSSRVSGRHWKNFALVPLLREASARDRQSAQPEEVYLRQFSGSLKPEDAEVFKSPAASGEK
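Cells expressing TRPV1 were dye-loaded with Fluo-8 and read kinetically: 10 s baseline, 3 min after compound (agonist portion), then 2 min after EC20 capsaicin (allosteric enhancer portion). Calcium-bound dye fluorescence at 480/520 nm.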
D2 ag: Beta-Arrestin HTS for Positive Allosteric Modulators of the Human D2 Dopamine Receptor: Agonists; D(2) dopamine receptor (Homo sapiens), P14416; DiscoveRx PathHunter D2 beta-arrestin, luminescence, 90 min; 100% = 57 uM dopamine signal; activation, % (test concentration not listed); actives 0.084% (n = 360,000); AID 624465, 2012; in the data active = activation above about 40%; inconclusive = about 15% to 40%; inactive = below about 15%; note: compound concentration not given in the record; the text of the record calls up to 30% inactive
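Agonist mode: compounds alone added to overnight-plated D2 PathHunter cells for 90 min at 37 C, with 57 uM final dopamine (EC100) defining full response. Beta-arrestin recruitment detected by chemiluminescent reagent, read after 1 h at ambient temperature.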
PINK1 modulator: A Quantitative High throughput Screen to Identify Chemical Modulators of PINK1 Expression | PINK1 immunofluorescence, high-content cytometry, 24 h | Potency, µM (doses to about 76.6 µM), inactives show top-dose activation (PINK1 increase), hits mostly activators | actives 0.2% (n = 410,000) | AID 624263, 2012; active = well fitted activation curve with a large enough effect; inconclusive = small, poorly fitted or top-dose-only effect; inactive = flat fitted curve, though single readings scatter; cell line not stated here;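 note: potency is the fitted concentration of half-maximal effect; % of control where 0% means no effect; nearly all actives have a fitted effect of over 65% in size; a mitochondrial uncoupler was the plate control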
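Stable cell line treated 24 h with compounds at 5 concentrations (CCCP controls), then fixed and immunostained for PINK1 plus nuclear and cell stains; PINK1 immunofluorescence quantified by laser-scanning microplate cytometry.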
D2 PAM: Beta-Arrestin HTS for Positive Allosteric Modulators of the Human D2 Dopamine Receptor: Potentiators. D(2) dopamine receptor (Homo sapiens), P14416. DiscoveRx D2 beta-arrestin cells, luminescence, 90 min; 100% = 57 uM dopamine signal. potentiation, % (concentration not given with the values). actives 0.23% (n = 360,000); active = potentiation of 50% or more; inconclusive = 30% to 50%; inactive = 30% or less;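 note: compound concentration not given in the record; tested on top of an EC20 dose of dopamine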
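PathHunter D2 cells, attached overnight at 37 deg C, received compound in DMSO plus dopamine at EC20 (50 nM final) for 90 min at 37 deg C. Beta-arrestin recruitment was read as luminescence after 1 h with detection reagent at ambient temperature.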
Sfp inh: qHTS Assay for Inhibitors of Bacillus subtilis Sfp phosphopantetheinyl transferase (PPTase). AID 1490, 2009. Biochemical Sfp PPTase activity, qHTS. actives 3.5% (n = 310,000). 4'-phosphopantetheinyl transferase ffp (Bacillus subtilis), Q9F4F7. Potency, µM, inactives show max response, negative = inhibition, hits mostly inhibitors; active = well fitted inhibition curve with a large enough effect; inconclusive = small, poorly fitted or top-dose-only effect, or another doubt; inactive = no such curve, though single readings can be large or run the other way;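 note: the enzyme is Sfp with the accession as filed and its product quenches rhodamine fluorescence; potency is the fitted concentration of half-maximal effect; 0% = enzyme reaction without inhibitor and -100% = no enzyme wells; top concentration of the series not given in the record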
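After 15 min at room temperature with compound, 15 nM Sfp received 5 uM rhodamine-CoA plus 12.5 uM BHQ-2-ybbR (50 mM Hepes pH 7.6, 10 mM MgCl2). Rate came from the fluorescence difference over 30 min, ex 525/em 598 nm.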
CtBP-E1A inh: qHTS Assay for Inhibitors of the CtBP/E1A Interaction | activity change, % (test concentration not listed) | AlphaScreen GST-E1A/His-CtBP binding, 1536-well; active compounds read low; control for the full effect not named in the record | actives 0.49% (n = 340,000) | CtBP / adenovirus E1A interaction (AlphaScreen); in the data active means activity change below about -65%; inconclusive means about -30% to -65%; inactive means above about -30%; note: % is set by controls: 0 for no effect and ±100 for the full control effect
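Protein mix (5X: 125 nM each GST-E1A, His-CtBP) was incubated with pinned compound 2 h at 37 deg C in dark, in 50 mM Tris pH 8.0 buffer with 300 mM NaCl. Glutathione donor and nickel acceptor beads followed; AlphaScreen signal read after 1 h.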
Six1-Eya2 inh: qHTS Assay for Inhibitors of the Six1/Eya2 Interaction; AlphaScreen GST-Six1/His-Eya2 binding, biochemical; active compounds read low; control for the full effect not named in the record; Homeobox protein SIX1 (Homo sapiens) + Protein phosphatase EYA2 (Homo sapiens), …; actives 0.56% (n = 360,000); activity change, % (concentration not given with the values); in the data active = activity change below about -65%; inconclusive = about -30% to -65%; inactive = above about -30%; note: % is set by controls: 0 for no effect and ±100 for the full control effect
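Homogeneous AlphaScreen proximity assay pairing GST-Six1 with His-tagged Eya2 (added as 5X mix: 250 nM and 500 nM) in 50 mM Tris pH 8.0, 300 mM NaCl, 1 mM TCEP. Glutathione donor and nickel acceptor beads; 1 h, 37 °C, dark.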
* hit, by the source's call; ? = inconclusive; nt = not tested or not shown; [ ] = remark or other dose. Hits appear at their usual frequency; 3.7% or so of the library scored in one or more.

SMILES	TRPV1 potentiator	D2 ag	PINK1 modulator	D2 PAM	Sfp inh	CtBP-E1A inh	Six1-Eya2 inh
Cc1csc(CNC(=O)c2cc(COc3c(C)cccc3C)on2)n1	1	0.9	-0.2%	-7	-1%	1	-1
COc1ccc([C@@H]2[C@@H]3C(=O)N(C(C)(C)C)C(=O)[C@@H]3[C@]3(Cc4ccc(Cl)cc4)C(=O)N(c4ccc(Br)cc4)C(=O)N23)cc1	-3	-3.1	-0.1%	-6	18%	-6	-4
Nc1nc(N)c2ncn(C3C=CC(CO)C3)c2n1 (stereo not drawn)	nt	-5.7	1.2%	-6	nt	9	10
CC1CCN(C(=O)Cn2cc(C(F)(F)F)ccc2=O)c2ccccc2S1 (stereo not drawn)	nt	1.1	0.1%	5	nt	nt	-5
CC(=O)c1c(C)[nH]c(C(=O)Nc2ccc(F)c(F)c2F)c1C	-14	-5.6	1.7%	-11	22%	-7	6
COc1ccccc1-n1c(SCC(=O)Nc2cccc(C(=O)O)c2)nnc1-c1ccccc1C	-5	-1.6	0.4%	-5	35%	nt	3
Cn1c(NCc2ccccc2)nc2cc(-c3ccccc3)sc2c1=O	nt	-4.2	3.9%	-5	nt	-3	-6
Cc1ccc(C(=O)N2CCCC(C(F)(F)F)C2)cc1S(=O)(=O)N1CCCCC1 (stereo not drawn)	-13	-3.4	5.5%	-2	nt	6	10
COc1ccccc1N1CCN(C(=O)CN2C(=O)C3CCCCC3C2=O)CC1 (stereo not drawn)	-3	5.2	-0.4%	-8	17%	nt	2
CCOC(=O)C1CCN(C(=O)COc2ccc(S(=O)(=O)N3CCCC3)cc2C)CC1	0	5.0	0.1%	-2	-2%	4	0
c1ccc2nc3c(nc2c1)CCCC3	-7	-1.0	1.3%	-10	10%	nt	-6
COc1ccc2nc(N3CCC(O)CC3)c(C#N)cc2c1	-6	-1.0	-1.8%	-2	-17%	6	5
Cc1cc(SCC(=O)c2ccc(O)c(O)c2)n2nc(C)c(-c3ccccc3)c2n1	-9	5.6	1.1%	-1	0%	-22	-12
COc1ccccc1CN(C)C(=O)CSCC(=O)Nc1ccccc1F	nt	-5.6	1.7%	-9	nt	-2	0
O=S(Cc1ccc(Br)cc1)Cc1nnc(SCc2c(F)cccc2Cl)n1-c1ccccc1 (stereo not drawn)	-6	1.1	17%	1	2%	-2	-5
O=C1c2ccccc2C(=O)N1CC(=O)N1c2ccccc2CCc2ccccc21	9	-4.7	-0.5%	-14	-2%	-2	-8
Cc1ccc(OCCCCN2CCC(C)CC2)cc1	-5	2.1	0.5%	-16	-18%	6	5
O=C(NCc1ccc(Cl)cc1)C(=O)NCC1OCCN1C(=O)c1cccs1 (stereo not drawn)	22	1.4	4.2%	-3	5%	13	-5
COc1ccc(-c2nc3scc(-c4ccc(OC)c(OC)c4)c3c(=O)o2)cc1	5	2.8	4.6%[38.3 µM]	-4	-7%	7	10
Cc1cc(=O)[nH]c(Nc2cccc(F)c2)n1	1	1.3	0.3%	-4	2%	0	-5
CC(C)(C)N(Cc1cc2ccccc2[nH]c1=O)C(=O)c1ccco1	3	-2.6	1.2%	-4	0%	nt	2
COC(=O)C1=C2SC(C)C(=O)N2C(N)=C(C#N)C1c1ccc(OC)c(OC)c1 (stereo not drawn)	-4	1.9	-1.5%	4	35µM*	-4	-5
Cc1ccc(NC(=O)C2CCN(S(=O)(=O)c3ccc4ccccc4c3)CC2)nc1	?	2.7	-0.3%	20	nt	-1	-8
CN(C)S(=O)(=O)N1CCC(Oc2cccc(C(=O)NC3CCCCC3)c2)CC1	-5	-4.5	0.0%	-4	15%	3	2
Cc1ccc(C(=O)COC(=O)CNC(=O)CNC(=O)c2ccc(C)cc2)cc1	0	2.8	-0.8%	0	-5%	-3	7
O=C(NC(=S)NCc1cccnc1)c1cc(Br)ccc1Cl	-1	-10	-0.1%	-13	15%	-11	-6
CCC(=O)NC(=S)Nc1cccc(NC(=O)c2ccccc2Cl)c1	14	-2.5	-0.9%	-4	-23%	-8	0
CC1c2ccccc2-c2ccccc2N1C (stereo not drawn)	nt	1.1	0.6%	-7	nt	-2	-7
Cc1ccc(-n2c(N)c(C(=O)Nc3ccccc3F)sc2=S)cc1C	-10	-2.0	2.0%	-12	-27%	?	-28
Cc1ccc(C2=NS(=O)(=O)N(C)C(C(=O)NCc3ccc4c(c3)OCO4)=C2)cc1	0	-7.3	1.4%	-7	-1%	-2	-2
Oc1ccc(Cl)cc1-c1cc(-c2ccco2)[nH]n1	1	0.6	5.5%	-7	50µM*	9	0
COc1ccc(C(CC(=O)O)NC(=O)c2ccccc2[N+](=O)[O-])cc1 (stereo not drawn)	-1	0.2	2.3%	-6	3%	-10	8
CCN1CCN(c2cc(C(C)C)nc3c(-c4ccccc4)c(C)nn23)CC1	-12	8.4	-2.5%	-9	?	14	10
O=C(CC1CC2CCC1C2)N1CCN(S(=O)(=O)c2ccccc2C(F)(F)F)CC1 (stereo not drawn)	21	13	2.9%	2	nt	3	4
CCOc1ccc(-c2nnn(CC(=O)N3CCN(c4ccc(F)cc4)CC3)n2)cc1OCC	?	-1.0	1.1%[38.3 µM]	-15	3%	12	-1
C=CCn1c(COc2ccccc2)nnc1SCC(=O)N/N=C/c1cc(Cl)ccc1O	19	-1.3	1.9%	-6	14%	?	?
O=C1OCCC1Sc1nnc(-c2ccc3c(c2)OCO3)o1 (stereo not drawn)	-2	-7.1	0.7%	-4	15%	12	0
CC(NC(=O)c1ccc(Br)s1)C1CCCO1 (stereo not drawn)	-24	1.4	3.6%[38.3 µM]	-12	-1%	3	3
CN1CCN(CCCNC(=O)c2ccc(/C=C3/Sc4ccccc4N(Cc4cccc(Cl)c4)C3=O)cc2)CC1	1	1.9	-1.1%	-15	50µM*	nt	-3
O=C(COC(=O)c1c(F)cccc1F)Nc1ccc2c(c1)OCO2	-5	-4.0	0.5%	2	nt	-1	4

An excerpt from the list above, as a working copy:
SMILES	TRPV1 potentiator	D2 ag	PINK1 modulator	D2 PAM	Sfp inh	CtBP-E1A inh	Six1-Eya2 inh
CC1c2ccccc2-c2ccccc2N1C (stereo not drawn)	nt	1.1	0.6%	-7	nt	-2	-7
Cc1ccc(-n2c(N)c(C(=O)Nc3ccccc3F)sc2=S)cc1C	-10	-2.0	2.0%	-12	-27%	?	-28

Additional results follow:
SMILES	TRPV1 potentiator	D2 ag	PINK1 modulator	D2 PAM	Sfp inh	CtBP-E1A inh	Six1-Eya2 inh
Cc1cc(OCC(=O)O)c2ccccc2n1	0	-2.5	0.8%	-4	18%	10	0
Cc1cc(=O)[nH]c2n[nH]c(-c3ccccc3)c12	-2	-1.6	-2.3%	4	15%	-2	-3
CCN=C1SC(C(=O)Nc2cccc(OCC)c2)CC(=O)N1CC (stereo not drawn)	-20	-1.7	0.0%[38.3 µM]	-12	12%	0	2
COc1cc(C(=O)Nc2c(C)cc(C)cc2C)c(-n2cnnn2)cc1OC	0	0.6	0.6%[38.3 µM]	-2	13%	-3	-2
O=C(CCCNS(=O)(=O)c1ccc(Cl)c(Cl)c1)NCCc1ccccn1	1	-2.9	-1.1%	-16	10%	0	-11
COc1cc(S(=O)(=O)N2CCC(N3CCCCC3)CC2)ccc1-n1cnnn1	3	-5.4	-0.5%	-3	4%	10	-8
CCC(C)(C)C1CCC2(CC1)NC(=O)N(CC(=O)N1CCN(c3ccccc3OC)CC1)C2=O (stereo not drawn)	nt	-3.2	0.5%	-16	nt	-18	18
N/C(=N\OC(=O)c1ccc(Cl)c([N+](=O)[O-])c1)c1ccccn1	-25	9.8	-2.1%	?	-11%	-12	-4
COc1ccc(NS(=O)(=O)c2ccc(O)c(C(=O)OCC(=O)Nc3ccc4c(c3)OCCO4)c2)cc1	0	-1.8	0.0%	-16	9%	2	-7
CC(C)OC(=O)CSc1nnc(CNc2cccc(Cl)c2)n1C	4	-3.0	-0.9%	-12	-2%	-1	-8
CCOc1ccc(C2C([N+](=O)[O-])=C(C)N(C)C(=O)N2C)cc1OC (stereo not drawn)	7	0.5	-0.7%	-9	3%	nt	6
CSc1nnc2c(n1)OC1(Nc3ccccc3-2)C(=O)Nc2ccccc21 (stereo not drawn)	3	-15	-1.8%	-28	19%	nt	-1
CCOCC(=O)Nc1nnc(COCC)s1	-2	-2.4	-0.8%	24	4%	8	3
CC(=O)N1c2ccc(S(=O)(=O)N3CCCCC3)cc2CC1C(=O)Nc1cccc(C)c1 (stereo not drawn)	-7	3.1	1.7%	-18	5%	-1	-2
Cc1ccc(C)c(N2CCN(C(=O)CCc3nc4ccccc4[nH]3)CC2)c1	10	-4.0	-0.6%	-9	11%	-1	0
Cc1cccc(Nc2nnc(SCC3CCCCO3)s2)c1 (stereo not drawn)	-14	-2.8	5.6%	-22	5%	-5	-3
C=CCc1ccccc1OCC(O)CN1CCN(C(=O)OCC)CC1 (stereo not drawn)	15	-6.1	2.1%	-24	-13%	-5	7
CCC(C)N1CCN(C(=O)c2cc(OC)cc(OC)c2)CC1 (stereo not drawn)	2	-0.2	-1.1%	-5	-22%	9	3
O=C(c1cc(COc2cccc3cnccc23)on1)N1CCCC(CCCO)C1 (stereo not drawn)	6	4.4	-0.6%	-4	13%	4	12
CCN(CC)CCNC(=O)Cc1nn(Cc2ccccc2)c(=O)c2ccccc12	9	2.5	1.6%	-13	10%	-12	2
Cc1cc(C)n2nc(C(=O)NC(c3ccccc3)c3ccccc3)nc2n1	1	1.0	-0.2%	0	19%	0	4

Filtered by structure: the entries above with a cyano group (2)
SMILES	TRPV1 potentiator	D2 ag	PINK1 modulator	D2 PAM	Sfp inh	CtBP-E1A inh	Six1-Eya2 inh
COc1ccc2nc(N3CCC(O)CC3)c(C#N)cc2c1	-6	-1.0	-1.8%	-2	-17%	6	5
COC(=O)C1=C2SC(C)C(=O)N2C(N)=C(C#N)C1c1ccc(OC)c(OC)c1 (stereo not drawn)	-4	1.9	-1.5%	4	35µM*	-4	-5
